PINK1 modulator – A Quantitative High throughput Screen to Identify Chemical Modulators of PINK1 Expression | 410,000 tested, 0.2% active | PINK1 immunofluorescence, high-content cytometry, 24 h | Potency, µM (titrated, usually from 76.6 µM), without a hit: at the top dose activation (PINK1 increase), hits mostly activators; active = well fitted activation curve with a large enough effect; inconclusive = small, poorly fitted or top-dose-only effect; inactive = flat fitted curve, though single readings scatter; cell line not stated here;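 note: potency is the fitted concentration of half-maximal effect; % of control where 0% means no effect; nearly all actives have a fitted effect of over 65% in size; a mitochondrial uncoupler was the plate control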
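PINK1 protein level read as immunofluorescence by microplate cytometer in a fixed, stained stable cell line after 24 h exposure to five compound concentrations, with CCCP as control.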
TRPML1 agonist – qHTS for Agonists of the Human Mucolipin Transient Receptor Potential 1 (TRPML1); Mucolipin-1 (Homo sapiens), Q9GZU1; AID 624414, 2012; TRPML1-expressing cells, Ca2+ dye fluorescence, FDSS; host cell line not named in the record; reference of the full effect not given here; activation, % (test concentration not listed); 410,000 tested, 0.12% active; in the data active = activation above about 50%; inconclusive = about 30% to 50%; inactive = below about 30%; note: 0% is about no effect; the text of the record puts the active cut at 80%
Target sequence (Q9GZU1 whole entry, looked up): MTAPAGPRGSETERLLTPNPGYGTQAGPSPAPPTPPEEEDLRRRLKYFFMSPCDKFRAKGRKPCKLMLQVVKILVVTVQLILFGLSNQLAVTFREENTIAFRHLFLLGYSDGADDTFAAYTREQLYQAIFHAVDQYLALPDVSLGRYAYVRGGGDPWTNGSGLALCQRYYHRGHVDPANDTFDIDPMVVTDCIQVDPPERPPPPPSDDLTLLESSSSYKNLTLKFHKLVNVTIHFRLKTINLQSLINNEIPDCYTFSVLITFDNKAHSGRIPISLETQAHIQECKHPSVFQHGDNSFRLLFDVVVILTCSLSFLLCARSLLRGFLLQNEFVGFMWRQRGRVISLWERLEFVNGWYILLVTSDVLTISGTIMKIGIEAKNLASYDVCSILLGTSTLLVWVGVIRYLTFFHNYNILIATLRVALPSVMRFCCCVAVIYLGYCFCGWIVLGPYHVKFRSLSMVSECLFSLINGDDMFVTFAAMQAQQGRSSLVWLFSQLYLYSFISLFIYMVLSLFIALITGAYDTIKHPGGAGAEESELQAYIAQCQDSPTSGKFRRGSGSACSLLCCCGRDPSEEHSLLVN
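In this qHTS format, compounds were pin-transferred onto Ca8-dye-loaded TRPML1-DL cells induced with Tet overnight, and intracellular Ca2+ fluorescence was recorded kinetically for 110 s after a 10 s baseline. A subsequent 4uM final 54-4 (EC80) addition followed by a second 110 s read served as the antagonist phase.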
Six1-Eya2 blk – qHTS Assay for Inhibitors of the Six1/Eya2 Interaction; AlphaScreen GST-Six1/His-Eya2 binding, biochemical; hits give low values; control for the full effect not named in the record; 360,000 tested, 0.56% active; AID 651725, 2012; Homeobox protein SIX1 (Homo sapiens) + Protein phosphatase EYA2 (Homo sapiens), …; activity change, % (no concentration beside the values); in the data active = activity change below about -65%; inconclusive = about -30% to -65%; inactive = above about -30%; note: % is set by controls: 0 for no effect and ±100 for the full control effect; compound concentration not given in the record
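Compounds are tested against tagged Six1 and Eya2 proteins bridged by glutathione donor and nickel acceptor beads; after a one-hour incubation at 37 °C without light, AlphaScreen emission is recorded.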
D2 agonist – Beta-Arrestin HTS for Positive Allosteric Modulators of the Human D2 Dopamine Receptor: Agonists. D(2) dopamine receptor (Homo sapiens), P14416. DiscoveRx PathHunter D2 beta-arrestin, luminescence, 90 min; 100% = 57 uM dopamine signal. activation, % (concentration not given with the values). 360,000 tested, 0.084% active. AID 624465, 2012; in the data active = activation above about 40%; inconclusive = about 15% to 40%; inactive = below about 15%; note: compound concentration not given in the record; the text of the record calls up to 30% inactive
Target sequence (P14416 whole entry, looked up): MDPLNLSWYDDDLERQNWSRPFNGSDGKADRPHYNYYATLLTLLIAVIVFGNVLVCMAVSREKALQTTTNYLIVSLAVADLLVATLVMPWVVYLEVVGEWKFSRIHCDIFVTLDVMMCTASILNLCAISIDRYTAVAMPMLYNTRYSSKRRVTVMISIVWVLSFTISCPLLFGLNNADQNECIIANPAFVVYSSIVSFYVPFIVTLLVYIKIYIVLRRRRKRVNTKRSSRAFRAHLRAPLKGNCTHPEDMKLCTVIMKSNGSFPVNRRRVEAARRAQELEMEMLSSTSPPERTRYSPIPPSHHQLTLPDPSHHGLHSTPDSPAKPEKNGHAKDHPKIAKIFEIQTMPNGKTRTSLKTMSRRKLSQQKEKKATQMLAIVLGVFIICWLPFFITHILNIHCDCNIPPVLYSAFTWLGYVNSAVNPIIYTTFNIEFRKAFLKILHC
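Agonist mode: compounds alone added to overnight-plated D2 PathHunter cells for 90 min at 37 C, with 57 uM final dopamine (EC100) defining full response. Beta-arrestin recruitment detected by chemiluminescent reagent, read after 1 h at ambient temperature.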
CtBP-E1A blk – qHTS Assay for Inhibitors of the CtBP/E1A Interaction; activity change, % (no concentration beside the values); AlphaScreen GST-E1A/His-CtBP binding, 1536-well; hits give low values; control for the full effect not named in the record; 340,000 tested, 0.49% active; CtBP / adenovirus E1A interaction (AlphaScreen); AID 651724, 2012; in the data active means activity change below about -65%; inconclusive means about -30% to -65%; inactive means above about -30%; note: % is set by controls: 0 for no effect and ±100 for the full control effect; compound concentration not given in the record
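GST-E1A and His-tagged CtBP (125 nM each as 5X stock) were preincubated with pin-transferred compound for 2 h at 37 °C in the dark, then glutathione donor and nickel acceptor beads were added for 1 h before AlphaScreen reading.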
TRPML1 blocker – qHTS for Inhibitors of the Human Mucolipin Transient Receptor Potential 1 (TRPML1) | 390,000 tested, 0.02% active | activity change, negative = inhibition, % (no concentration beside the values) | TRPML1-inducible cells, Ca2+ dye fluorescence, FDSS; hits give low values; inhibition of EC80 agonist-evoked calcium signal | Mucolipin-1 (Homo sapiens), Q9GZU1; in the data active means activity change below about -50%; inconclusive means about -30% to -50%; inactive means above about -30%;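 note: stimulus is agonist 54-4 at its EC80 concentration; % is set by controls: 0 for no effect and ±100 for the full control effect; compound concentration not given in the record; the text of the record puts the active cut at -80%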
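Tet-induced TRPML1-DL cells loaded with Ca8 no-wash calcium dye were read kinetically on FDSS. Compound addition was followed by EC80 agonist 54-4 (4 uM final); inhibition was read over 110 s.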
The depositor's hits bear a star; u = inconclusive; x = no result given; & = joins results of further samples; [ ] = remark or other dose. No enrichment for hits; 1% or so of the library scored in one or more.

SMILES	PINK1 modulator	TRPML1 agonist	Six1-Eya2 blk	D2 agonist	CtBP-E1A blk	TRPML1 blocker
O=C(O)CC1CCC1CC(=O)O (stereo unspecified)	-2.3%	0.9	11	-0.7	0	5
CC1(C)CC(=O)C=C(CN2C(=O)c3ccccc3C2=O)C1=O	1.3%	-0.5	1	-2.3	4	3
CCCCSc1nc2ccc(Nc3nc(N4CCOCC4)nc(N4CCOCC4)n3)cc2s1	0.5%	4.0	-2	-1.7	0	-20
O=C(/C=C/c1ccccc1)NC1CCS(=O)(=O)C1 (stereo unspecified)	0.4%	-0.6	3	-4.8	1	4
COc1ccc(-c2nc(/C=C3\C(C)=Nc4ccccc43)c(O)o2)cc1	4.5%	9.0	1	-11	-6	-19
O=C(NCCc1ccccc1)N1CCCC(CNS(=O)(=O)Cc2ccccc2)C1 (stereo unspecified)	-1.2%	-1.2	9	-12	0	9
O=C(O)c1ccc([N+](=O)[O-])c(CS(=O)(=O)c2ccccc2)c1	2.3%	-1.0	28	-3.7	-18	-5
O=C(COC(=O)c1ccncc1)Nc1ccc2c(c1)OCO2	1.3%	0.2	-12	-4.2	-1	-13
COCc1cc(C)nc2sc3c(c12)NC(c1ccc(O)cc1)N(c1ccc(OC)cc1)C3=O (stereo unspecified)	1.4%	-0.8	x	x	x	-2
Cc1onc(-c2ccccc2)c1C(=O)c1ccccc1	-0.6%	2.4	14	-3.2	12	-2
OC[C@@H](O)[C@@H](O)CO	1.1%	x	3	0.3	7	x
CN(C)c1ccc(/C=C/c2nc(-c3ccccc3O)n(-c3ccccc3)n2)cc1	1.5%	-0.6	x	x	x	2
O=C(COC(=O)c1ccccc1)Nc1ccc(Cl)cn1	2.8%	-0.6	15	-5.2	-12	-15
COc1ccc(S(=O)(=O)N2CCCCC2)cc1NC(=O)CCCNC(=O)c1ccc(Cl)cc1	-0.4%	0.2	2	1.4	2	-15
CO/N=C/NC(=O)N1OC[C@@H]2COc3ccc4ccccc4c3[C@@H]21	1.1%	1.7	6	-1.6	-1	10
O=C(NCc1ccccc1Cl)c1ccc2nnsc2c1	6.7%	0.8	4	6.4	4	1
CC(C(=O)NCCc1ccccc1)N1c2cccc3cccc(c23)S1(=O)=O (stereo unspecified)	-0.5%	-0.2	9	3.1	10	-6
COc1ccc(NC(=O)c2cc(C3CCCCN3C(=O)CCCc3ccccc3)on2)c(C)c1 (stereo unspecified)	1.1%	0.2	-6	0.4	-3	x
Cc1c(-c2n[nH]c(=S)n2-c2ccc(C(F)(F)F)cc2)nnn1-c1ccccc1	2.8%	0.2	1	-6.6	5	-2
Cc1nn(-c2ccc(N3CCOCC3)nn2)c(C)c1CCC(=O)NCc1ccc(Cl)cc1	0.5%	0.4	x	x	x	22
COc1ccc(-c2csc(NC(=O)CCNC(=O)c3ccco3)n2)cc1OC	0.8%	-1.3	-28	3.1	x	16
COc1ccc(N2CCN(C(=O)Cn3cnc4sc(C)c(S(=O)(=O)N5CCCCC5)c4c3=O)CC2)cc1	1.3%	0.0	x	x	x	1
Cc1ccc2nc(NC(=O)CSCC(=O)Nc3cc(C)on3)sc2c1	u	2.0	3	-2.3	-22	29
COc1ccc(O)c(C(=O)c2cnc3onc(C(C)C)c3c2)c1	-0.6%	0.6	-4	4.1	-21	15
O=[N+]([O-])c1cccc(/C=N/N2CCN(Cc3ccc(Cl)cc3)CC2)c1	-0.1%	2.1	u	-3.1	-15	6
SMILES	PINK1 modulator	TRPML1 agonist	Six1-Eya2 blk	D2 agonist	CtBP-E1A blk	TRPML1 blocker
CN(Cc1cc(=O)n2ccsc2n1)Cc1nc2ccccc2c(=O)[nH]1	-1.4%	-0.2	-28	1.3	-29	2
CCCC1CCC(=NNC(=O)OC(C)(C)C)CC1 (stereo unspecified)	1.0%	0.2	6	-2.1	0	6
COc1cccc(OCc2ccc(Cl)cc2)c1C#N	1.9%	3.3	11	-0.9	11	-3
CC1(C)CC(NC(=O)c2cccc3ccccc23)CC(C)(C)N1	0.1%	-0.7	2	-2.8	5	-4
COc1ccc(NS(=O)(=O)c2cccc(C(=O)NNC(=O)c3ccccc3OC)c2)cc1	0.7%	-0.1	-6	-2.3	0	-21
CCN(CC)CCn1c2c(c(SCC(=O)Nc3cc(OC)cc(OC)c3)nc1=O)CCC2	-2.9%	-0.3	-11	-4.7	-19	17
CNS(=O)(=O)c1cc(OCC(N)=O)c(C)cc1Cl	-0.5%	-0.3	6	-1.5	-2	17
Cc1cc2c(c(=O)n1Cc1cccnc1)C(c1ccccc1)C(C#N)=C(N)O2 (stereo unspecified)	-1.5%	-0.1	-6	-0.5	0	14
CCOC(=O)NC(=O)c1cn(CCN(C)C)c(=O)[nH]c1=O	0.8%	-0.2	-2	0.3	0	18
CCN(CC)c1ccc2cc(C(=O)Nc3ccccn3)c(=O)oc2c1	5.8%&-0.5%	10.0&9.2	11	-0.2	11	-15
COCCCn1c(C(=O)N2CC(C)OC(C)C2)cc2c(=O)n3ccccc3nc21 (stereo unspecified)	0.8%	-0.6	4	-0.2	5	-1
CC(C)Oc1ccc(CNC(=O)Oc2ccccc2)cc1	14%	1.0	1	-2.5	-5	u
CCn1cc(C(=O)NCc2ccc(Cl)cc2)c(=O)c2cc(S(=O)(=O)N(C)C3CCCCC3)ccc21	2.0%	-1.0	x	x	x	-8
COC(=O)CN(c1ccc(F)cc1)S(=O)(=O)c1ccc2c(c1)OCCO2	6.7%[38.3 µM]	-0.4	-1	-3.4	-21	8
CCc1cccc(C)c1NC(=O)CSc1nc2ccccc2n1CC(=O)N(C)C	x	-0.5	-1	-3.8	11	-1
Cc1cccc(-n2c3nc(=O)n(C)c(=O)c-3cc3c(C)nn(-c4ccccc4)c32)c1C	0.6%	-0.5	x	x	x	-11
Cc1nn(-c2ccccc2)c2nc(N)c(C#N)c(-c3ccc(F)cc3)c12	12%	0.1	5	-3.9	8	3
CCC1(C)Cc2ccccc2C(=O)N1 (stereo unspecified)	1.6%	-0.3	0	-4.8	x	3
O=C(c1cc(-c2ccc(Cl)cc2)on1)N1CCN(c2ccccc2)CC1	u	0.8	-6	-5.2	-7	18
CCOc1cc(C2C3=C(CCCC3=O)NC3=C2C(=O)CCC3)ccc1OCCO	-1.9%	0.8	9	0.2	-3	-6
CCNC(=O)C1CC(=O)N(c2ccc(OCC)cc2)C1 (stereo unspecified)	-0.7%	-0.7	4	-0.4	4	5
O=C(NC1CC1)c1cccc(S(=O)(=O)Nc2ccccc2F)c1	-3.3%	0.7	8	-3.1	-3	-12
COc1cc(CC(=O)O)c([N+](=O)[O-])cc1OC	0.8%	x	1	-1.0	13	x
CCCn1c(=NC(=O)CCS(=O)(=O)c2ccccc2)sc2cc(S(N)(=O)=O)ccc21	1.3%	1.2	20	-3.7	3	4
CCOc1ccccc1NC(=O)c1ccc(NC(=O)c2ccco2)cc1	-0.8%	0.1	-6	-1.4	-10	49

Complete entries, quoted from the list. Screens in order: PINK1 modulator	TRPML1 agonist	Six1-Eya2 blk	D2 agonist	CtBP-E1A blk	TRPML1 blocker
Profile of CN(Cc1cc(=O)n2ccsc2n1)Cc1nc2ccccc2c(=O)[nH]1 → -1.4%	-0.2	-28	1.3	-29	2
Profile of CCCC1CCC(=NNC(=O)OC(C)(C)C)CC1 (stereo unspecified) → 1.0%	0.2	6	-2.1	0	6
Profile of CCOc1ccccc1NC(=O)c1ccc(NC(=O)c2ccco2)cc1 → -0.8%	0.1	-6	-1.4	-10	49
Profile of COc1ccc(NS(=O)(=O)c2cccc(C(=O)NNC(=O)c3ccccc3OC)c2)cc1 → 0.7%	-0.1	-6	-2.3	0	-21

Back to the main list, repeating the 2 entries before the break.
SMILES	PINK1 modulator	TRPML1 agonist	Six1-Eya2 blk	D2 agonist	CtBP-E1A blk	TRPML1 blocker
CCCn1c(=NC(=O)CCS(=O)(=O)c2ccccc2)sc2cc(S(N)(=O)=O)ccc21	1.3%	1.2	20	-3.7	3	4
CCOc1ccccc1NC(=O)c1ccc(NC(=O)c2ccco2)cc1	-0.8%	0.1	-6	-1.4	-10	49
CSc1nncn1/N=C/c1ccccc1F	1.7%	-0.9	0	-2.5	5	-7
COc1ccccc1/C=C/C=N/NC(=O)c1ccco1	16%	-0.4	5	0.5	12	-11
O=C(c1[nH]c(C(F)(F)F)nc1-c1ccccc1)N1CCc2c([nH]c3ccccc23)C1	3.6%	-0.3	u	-2.8	u	x
O=C(N/N=C/c1ccc(Cl)cc1)c1n[nH]c2c1CCCC2	5.5%	0.4	0	3.2	0	6
CCOc1ccc(N(CC(=O)NC2CCCCC2)C(=O)CCC(=O)Nc2ccccn2)cc1	0.9%	-0.2	0	-2.5	-8	19
O=C(Nc1cccc(C(F)(F)F)c1)N1CCN(C(=O)Nc2cccc(C(F)(F)F)c2)CC1	0.1%	0.2	5	-4.5	1	1
CCOc1ccccc1-c1cc(C(=O)N/N=C/c2ccc3c(c2)OCO3)c2ccccc2n1	2.1%	-0.3	2	-9.3	0	-4
CC(C)COC(=O)n1c(=O)oc2cc(S(=O)(=O)N3CCCCC3)ccc21	11%[38.3 µM]	1.1	0	-2.4	6	-25
O=C(NC12CC3CC(CC(C3)C1)C2)C1CCCN1C(=O)NC1CCCCC1 (stereo unspecified)	-0.4%	0.0	4	-1.5	3	0
O=C(NCCc1nc(-c2ccccc2Cl)no1)c1ccccc1	2.2%	0.5	5	-2.6	x	41
Cc1ccc(C(=O)NNC(=S)NCC2CCCO2)cc1[N+](=O)[O-] (stereo unspecified)	3.2%	0.0	6	-11	8	-8
Cc1cc(C(=O)N2CCN(c3cc(Cl)ccc3C)CC2)on1	1.9%	-0.2	0	1.3	7	20
C=CCN(CC=C)C(=S)NC(=O)c1ccc(OC)c(Br)c1	2.8%[38.3 µM]	0.3	-2	-2.4	9	-8
CSc1ccc(C=NNc2ccc(S(=O)(=O)Nc3ccccc3C(=O)O)cc2[N+](=O)[O-])cc1	0.3%	0.6	-14	-1.1	2	-12
CCOc1ccccc1N1CCN(C(=O)c2cc3ccccc3cc2OC)CC1	6.9%	2.8	-16	-3.6	-6	7
CCC(=O)N1CCC1(C)C(=O)NCc1ccc(SC)cc1 (stereo unspecified)	1.8%	-0.6	-3	-3.8	0	x
CCCCn1c(-c2cccc(C)c2)nc2cc3[nH]c(=O)c(C(C)C)nc3cc21	-0.1%	0.5	1	4.2	0	3
COCCOc1ccc(C(F)(F)F)cc1NC(=O)COC(=O)C1=COCCO1	-2.3%	0.2	9	-5.2	-3	5
NC(=O)c1cc(N2C(=O)C3CC=CCC3C2=O)ccc1N1CCCCC1 (stereo unspecified)	-1.7%	2.1	2	-0.6	0	-8
COc1ccccc1N1CCN(C(=O)c2sc3nc(-c4ccc(F)cc4)cn3c2C)CC1	1.4%	1.0	-2	1.0	-21	13
